PKD1 inh – blocks activity of human protein kinase D1; PKD1 kinase fluorescence polarization assay; inhibition, %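 (about 10 µM by stock and volumes)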; 0.056% of 200,000 active;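 active means inhibition of 50% or more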;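 further: controls were vehicle for no effect and a reference inhibitor for full effect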
HSV augment – HSV replication enhancement | HSV replication augmentation in cells, fold increase | maximum fold increase | 0.005% of 220,000 active | AID 1956;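 active means peak rise of 1.5-fold or more in the series; tested in PC3 cells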;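 further: first round at 10 µM; read as green reporter fluorescence; hits show the peak of a series up to 25 µM; 1 = signal of infected wells without compound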
RGS16-Gao HTS – RGS16-Galphao interaction regulator (human). 0.38% of 220,000 active. bead-based flow cytometry RGS16-Galphao binding, fluorescence; actives lie on both sides. AID 1441. binding response (% of control), % at 10 µM. O15492+P09471;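 active means below 25% or above 175%, edge rows of some plates excepted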;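 further: Galphao activated by GDP with aluminum fluoride before binding; 100% = wells without compound and 0% = beads without RGS; some results beyond the cut were filed as inactive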
Target sequence (O15492 whole entry, looked up): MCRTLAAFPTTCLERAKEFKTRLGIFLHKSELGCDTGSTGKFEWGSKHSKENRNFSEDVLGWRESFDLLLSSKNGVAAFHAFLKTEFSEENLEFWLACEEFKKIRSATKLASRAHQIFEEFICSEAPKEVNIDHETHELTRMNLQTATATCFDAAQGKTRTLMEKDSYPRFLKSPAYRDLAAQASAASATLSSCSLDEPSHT
Target sequence (P09471 whole entry, looked up): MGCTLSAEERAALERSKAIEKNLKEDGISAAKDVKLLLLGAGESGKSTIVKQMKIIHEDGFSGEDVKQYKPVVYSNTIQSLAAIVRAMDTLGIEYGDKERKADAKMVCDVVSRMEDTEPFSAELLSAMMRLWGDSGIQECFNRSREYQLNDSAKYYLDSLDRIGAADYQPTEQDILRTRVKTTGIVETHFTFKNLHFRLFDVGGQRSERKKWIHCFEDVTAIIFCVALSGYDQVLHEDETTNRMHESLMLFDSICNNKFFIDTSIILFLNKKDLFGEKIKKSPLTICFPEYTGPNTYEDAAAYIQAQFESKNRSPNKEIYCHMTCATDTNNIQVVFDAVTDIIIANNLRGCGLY
Insulin prom inh – TRM-6 insulin promoter activity inhibition; TRM-6 cells (human fetal islet line), insulin promoter-eGFP reporter, imaging; reporter expression induced with tamoxifen; inhibition, % at 2 µM; 0.9% of 130,000 active; AID 1273;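 active means inhibition above the mean plus 3 SD, with well images judged a real hit on visual review, cut at about 60% in these data, passing the limit was not always enough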
GALR2 agonist – activates the human galanin receptor 2; 0.48% of 140,000 active; activation, %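 (tested at 5 µM)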; GALR2-expressing cells, agonist activation read-out;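 active means above mean plus 3 SD of all compounds, about 5% in these data, not always enough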;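 further: 0% = vehicle buffer wells and 100% = reference agonist at full effect; tested in CHO reporter cells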
Target sequence (O43603 whole entry, looked up): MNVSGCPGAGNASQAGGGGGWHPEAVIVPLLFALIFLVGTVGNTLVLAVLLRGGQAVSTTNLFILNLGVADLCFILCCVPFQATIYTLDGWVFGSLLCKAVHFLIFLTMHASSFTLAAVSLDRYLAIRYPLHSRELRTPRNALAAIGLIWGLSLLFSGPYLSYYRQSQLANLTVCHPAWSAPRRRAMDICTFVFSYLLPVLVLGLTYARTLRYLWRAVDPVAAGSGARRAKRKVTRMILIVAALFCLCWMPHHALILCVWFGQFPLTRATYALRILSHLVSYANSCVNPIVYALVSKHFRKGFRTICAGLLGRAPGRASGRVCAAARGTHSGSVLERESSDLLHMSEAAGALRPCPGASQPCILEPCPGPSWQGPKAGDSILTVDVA
Insulin prom inh cell count – further read-out of Insulin prom inh, marked with its call; normalized cell count, %; measured here: cell count, toxicity; reference of the scale not given here;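 cells exposed to compound for 48 h; stained nuclei by imaging scaled within each plate; lower means fewer cells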
HSV augment primary fold – recorded beside HSV augment, whose call it bears; fold increase; compound at 10 µM; measured here: primary screen fold increase 10 uM; tested in PC3 cells;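 GFP signal in the first replicate; 1 = infected wells without compound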
* hit, by the source's call; i = inactive; . = no result given.

SMILES	PKD1 inh	HSV augment	HSV augment primary fold	RGS16-Gao HTS	Insulin prom inh	Insulin prom inh cell count	GALR2 agonist
O=C(CSc1nnc2ccccn12)Nc1ccccc1C(=O)O	2	i	1.1	79	3	96	.
COc1cc(S(=O)(=O)NCC2CCCO2)c(OC)cc1Cl (configuration not stated)	-6	i	1	101	-238	89	-3.6
O=C(NCCN1CCOCC1)c1cccs1	-1	i	1	102	-15	103	5.9
CC(C(=O)Nc1ccccc1F)N1C(=O)c2ccccc2C1=O (configuration not stated)	10	i	0.98	109	30	106	-0.3
Cc1cccc2cc(CN(Cc3nnnn3C3CCCC3)C3CCCCC3)c(=O)[nH]c12	-1	i	1.1	.	-433	39	-1.7
COc1ccc(NC(=S)N2CCc3cc(OC)c(OC)cc3C2)cc1	.	i	0.9	109	.	.	.
CCCCC(O)(CCCC)C(=O)NN(C(=O)OC)c1ccc(C)cc1	.	i	0.97	109	.	.	.
Cc1nnc(SCc2ccc(C(=O)Nc3cc(Cl)ccc3C)cc2)s1	-5	i	0.93	103	.	.	-1.6
CCOc1ccc(N=C2C(=O)N(CN3CCOCC3)c3ccccc32)cc1	10	i	0.96	101	0	125	-2.2
COc1ccccc1Oc1coc2c(CN(C)C)c(O)ccc2c1=O	2	i	0.99	115	45	83	-0.7
COc1ccc(OC)c(/C=N/NC(=O)c2ccc3nc[nH]c3c2)c1	.	i	1.1	104	.	.	.
NC1=NC(c2cn[nH]c2-c2cccc(F)c2)n2c(nc3ccccc32)N1 (configuration not stated)	3	i	0.99	98	.	.	.
O=C(O)c1cnn(-c2nc(-c3ccc(F)cc3)cs2)c1C(F)(F)F	2	i	0.93	99	-21	131	.
CCOc1ccc(NC(=O)C(C)NS(=O)(=O)c2ccc(NC(C)=O)cc2)cc1 (configuration not stated)	-6	i	1.1	95	.	.	.
CCOC(=O)c1ccccc1NS(=O)(=O)c1ccc(S(=O)(=O)N2CCCC2)cc1	-6	i	0.9	99	.	.	-1.3
Cc1cc(C(=O)COC(=O)c2ccc[nH]c2=O)c(C)n1-c1ccc(Br)cc1	-13	i	1.1	103	-39	87	-1.5
N#Cc1nc(-c2ccco2)oc1N1CCCC1	6	i	0.94	104	21	111	-1.3
COc1ccccc1CCNC(=O)c1cc(-c2ccncc2)nc2ccc(Br)cc12	0	i	1.1	104	.	.	.
O=C(COC(=O)/C=C/c1ccc(Cl)cc1)Nc1ccccc1-c1ccccc1	-8	i	0.79	102	.	.	-0.9
O=C1CCCC(O)=C1N=Nc1ccc(C(=O)O)cc1	.	i	1.2	105	.	.	.
CCCCCc1nc2sc3c(c2c(=O)n1NC(=O)c1ccc([N+](=O)[O-])cc1)CC(C)(C)OC3	1	i	0.88	93	11	79	-2.1
CCCC(C)NC(=O)c1ccc2[nH]c3c(c2c1)CC(C)CC3 (configuration not stated)	-2	i	0.9	99	-45	47	-2.3
Cc1c(C(=O)OCC(=O)N2CC(=O)Nc3ccccc32)oc2ccc(Br)cc12	-6	.	.	105	20	137	-2.9
CCc1ccc(S(=O)(=O)c2n[nH]n3c2nc(=O)c2ccccc23)cc1	-1	i	0.91	97	-8	176	0.3
O=C(NN1CCCCC1)c1cnn2c(C(F)F)cc(-c3ccccc3)nc12	-6	i	0.86	103	-29	107	.
COc1ccc(NC(=O)CCN2CC(C)OC(C)C2)c(OC)c1 (configuration not stated)	7	i	0.99	98	24	114	-1.4
CC(=O)N(/N=C1\Sc2ccccc2C1=O)c1ccccc1C	-9	i	0.95	95	24	69	0.2
CCOC(=O)c1[nH]c(C)c(C(=O)OC)c1C	.	i	0.9	110	.	.	.
CSc1ccccc1NC(=S)Nc1cccc(C(F)(F)F)c1	-6	i	1	94	9	80	-4.2
Cc1cc(=O)[nH]c(SCC(=O)Nc2ccc(Cl)cn2)n1	-1	i	1	104	-29	101	-0.2
O=C(CN1CCN(c2ccc(Cl)cc2)CC1)Nc1ccc(F)cc1	-1	i	0.93	103	-28	137	-0.9
CCCCN(CC)CCCNC(=O)Cn1nc(Cc2cccnc2)c2ccccc2c1=O	1	i	0.91	106	-22	97	-0.8
O=C(CN1CCN(CCOCCO)CC1)N1c2ccccc2Sc2ccc(Cl)cc21	-21	i	0.95	104	-19	42	-5.5
CCc1c(C)nc(SCC(=O)N2CCN(c3ccccc3OC)CC2)[nH]c1=O	-5	i	1.1	120	-9	95	.
CCc1cccc(C)c1N(C(=O)Cn1c(=O)[nH]c2ccccc21)C(C)COC (configuration not stated)	-5	i	0.82	103	.	.	0.2
COc1ccc(OCC(=O)Nc2ccc(N3CCN(C(=O)c4ccccc4C)CC3)cc2)cc1	-7	i	0.81	101	0	103	.
CCOC(=O)c1ccc(NC(=S)NC2CC(C)(C)NC(C)(C)C2)cc1	5	i	0.75	106	11	71	-0.2
COc1ccc(Cl)cc1C(=O)O/N=C(\N)c1ccc(Cl)cc1	-4	i	1.1	103	17	75	-0.7
CCOc1ccc(N2CC(C(=O)NCCN3C(=O)S/C(=C\c4ccc(OC)cc4)C3=O)CC2=O)cc1 (configuration not stated)	-7	i	1	107	.	.	-0.1
O=C1C2CCCN2C(c2ccccc2)N1c1cccc(Cl)c1 (configuration not stated)	-7	i	1.1	100	.	.	-1.5
COc1ccccc1Nc1nc(-c2c(C)nc3ncccn23)cs1	-10	i	0.92	97	-117	89	.
Cc1ccc(-n2ncc(C(=O)N3CCc4ccccc4C3)c2NC(=O)c2ccco2)cc1C	6	i	0.87	41	62	100	-2.4
Cn1c(=O)c2c(ncn2CC(=O)N/N=C/C=C/c2ccco2)n(C)c1=O	.	i	1.2	97	.	.	.
N#CC(=C1CCCC1)c1nc(-c2ccccc2)cs1	-3	i	0.97	117	-3	138	-2.0
Cc1nc(SCc2ccccc2F)c2cnn(-c3ccccc3)c2n1	2	i	0.92	101	-20	109	.
CC1CC(C)CN(CC(C)(C)NS(=O)(=O)c2ccccc2)C1 (configuration not stated)	-2	i	1.2	100	-6	94	-1.8
CCOc1ccc(C(=O)NC(=S)Nc2ccc(NC(=O)CC)cc2)cc1[N+](=O)[O-]	0	i	0.9	101	-9	135	0.4
CCOc1ccc(CN(C)C(=O)c2cccnc2OCC)cc1OC	1	i	0.99	106	.	.	.
CC1CCCC(NC(=O)c2ccc(CNc3c(N4CCCC4)c(=O)c3=O)cc2)C1C (configuration not stated)	-6	i	0.82	100	.	.	-1.8
CCN1CCC(NC(=O)Nc2ccc(F)cc2F)CC1	-5	i	0.99	104	.	.	.
Next section.
SMILES	PKD1 inh	HSV augment	HSV augment primary fold	RGS16-Gao HTS	Insulin prom inh	Insulin prom inh cell count	GALR2 agonist
Cc1ccccc1NC(=S)NC(NC(=O)c1ccccc1C)C(Cl)(Cl)Cl (configuration not stated)	-6	i	0.92	105	15	41	-2.7
CC(C)C12CCC(C(=O)O)C(C1)C(=O)O2 (configuration not stated)	-6	i	0.95	104	0	111	-2.9
O=C(Nc1ccc(S(=O)(=O)N2CCOCC2)cc1)c1ccc(Cl)cc1	.	i	0.82	99	.	.	.
Cc1ccc2c(CC(=O)OC3CCOC3=O)coc2c1 (configuration not stated)	14	i	1.1	101	-14	50	-0.6
C=CCn1c(SCC(=O)N2N=C(c3ccco3)CC2c2ccco2)nnc1-c1ccncc1 (configuration not stated)	-12	i	1.1	68	-3	120	0.4
Cc1ccc(CSCCNC(=O)c2ccccc2)cc1	-1	i	0.97	80	53	55	-0.7
O=C(COC(=O)CCc1ccc(S(=O)(=O)N2CCOCC2)cc1)NCc1ccccc1	-12	i	0.97	104	-155	143	.
Cc1ccc(C(=O)/C=C/c2ccc(Br)cc2)o1	0	i	0.74	112	0	71	-3.4
CC(=O)c1ccc(NC(=O)CSc2nccn2C)cc1	.	i	1	101	.	.	.
CC1CC(C)CN(CCCNC(=O)C2CCN(S(=O)(=O)N3CCCCC3)CC2)C1 (configuration not stated)	-16	i	0.95	96	0	94	-1.2
O=C(NCc1ccco1)c1csc2c1CCCCC2	0	i	0.94	100	-25	93	-0.6
COc1ccccc1Nc1nc(NCc2ccco2)c2ccccc2n1	.	i	0.92	103	.	.	.
O=C(O/N=C1\CCCCC1c1ccc([N+](=O)[O-])cc1[N+](=O)[O-])c1c(F)cccc1F (configuration not stated)	6	i	0.93	79	0	141	-1.4
Cc1nn(-c2ccccc2)c(Cl)c1/C=N\NC(=O)c1cncc(Br)c1	0	i	0.99	98	.	.	0.9
N#CCCN(Cc1cccnc1)C(=O)c1ccc(S(=O)(=O)N2CCOCC2)cc1	4	i	1	94	.	.	-2.9
O=C(CCN1C(=O)COc2ccccc21)NCCN1CCN(c2cccc(Cl)c2)CC1	-11	i	0.65	104	-11	79	-0.8
O=c1c2cc(N3CCOCC3)ccc2[nH]c(=S)n1Cc1ccco1	.	i	1	97	.	.	.
O=c1c2c3c(sc2n2c(=S)[nH]nc2n1Cc1ccccc1)CN(Cc1ccccc1)CC3	-2	.	.	.	49	96	-1.9
CCCc1cc(C(=O)N2CCN(C(c3ccccc3)c3ccccc3)CC2)no1	-6	i	0.9	101	.	.	-0.5
CC1(C)OCC(COC(=O)Nc2cccnc2)([N+](=O)[O-])CO1	-3	i	0.97	110	36	53	.

Profiles from above.
`O=C(CCN1C(=O)COc2ccccc21)NCCN1CCN(c2cccc(Cl)c2)CC1` as listed: PKD1 inh: -11; HSV augment: i; HSV augment primary fold: 0.65; RGS16-Gao HTS: 104; Insulin prom inh: -11; Insulin prom inh cell count: 79; GALR2 agonist: -0.8
`O=C(O/N=C1\CCCCC1c1ccc([N+](=O)[O-])cc1[N+](=O)[O-])c1c(F)cccc1F` (configuration not stated) as listed: PKD1 inh: 6; HSV augment: i; HSV augment primary fold: 0.93; RGS16-Gao HTS: 79; Insulin prom inh: 0; Insulin prom inh cell count: 141; GALR2 agonist: -1.4

Additional results follow:
SMILES	PKD1 inh	HSV augment	HSV augment primary fold	RGS16-Gao HTS	Insulin prom inh	Insulin prom inh cell count	GALR2 agonist
Nc1ccc(Cl)c(-c2nc3ncccc3o2)c1	-8	i	0.98	96	3	104	-1.9
Cc1ccc(NC(=S)Nc2cc(C(=O)O)ccc2N2CC3CC(C2)c2cccc(=O)n2C3)cc1C (configuration not stated)	-2	i	1.2	103	.	.	.
O=C(N/N=C/c1ccncc1)c1ccc(NC(=O)c2ccc(Cl)cc2)cc1	-2	i	0.94	106	.	.	.
O=c1[nH]c(Cc2cccs2)nc2scc(-c3ccc(Cl)cc3)c12	.	i	0.92	96	.	.	.
Cc1cn(Cc2ccccc2)c(=O)[nH]c1=O	4	i	0.88	102	34	62	-2.0
COC(=O)Cc1ccc(NC(=S)NCc2ccc(F)cc2)cc1	-2	i	1.1	103	.	.	0.1
Cc1cc(-c2csc(NC(=O)c3ccc(=O)n(C)n3)n2)c(C)n1CC1CCCO1 (configuration not stated)	-2	i	0.91	83	-29	102	-0.7
CCOc1ccc(NC(=O)Nc2ccc(NC(C)=O)cc2)cc1	-1	i	0.83	98	57	123	.
Cc1ccccc1NC(=O)COC(=O)C1(C)CC1(Cl)Cl (configuration not stated)	1	i	0.98	103	-14	55	.
Cc1ccc(NC(=O)CSc2n[nH]c(-c3ccco3)n2)c(C)c1	2	i	0.99	100	20	87	.
Cc1cc(NC(=O)NC(C(F)(F)F)C(F)(F)F)no1	-3	i	1.1	90	.	.	.
CNc1ncc(C(=O)c2ccc(Br)cc2)s1	-8	i	0.87	101	.	.	.
O=C(c1cc(S(=O)(=O)N2CCCCC2)ccc1N1CCOCC1)N1CCN(Cc2ccccc2)CC1	-6	i	0.94	108	7	78	.
Cn1cccc1/C=C1\SC(=Nc2ccccc2)NC1=O	.	i	0.79	98	.	.	.
CC(C)CC(N)c1cn([C@@H](CCC(=O)O)C(=O)N2CCNCC2)nn1 (some centres not stated)	4	i	0.98	101	.	.	.
COC(=O)c1[nH]c2ccc(C)cc2c1NC(=O)C1=COCCO1	-2	i	1.2	107	-68	87	-4.0
O=C(Nc1cccs1)Nc1c(F)cc(F)cc1Br	-5	i	0.98	101	24	166	0.5
C=C(C)CNC(=O)c1ccc(OC2CCN(S(=O)(=O)N(C)C)CC2)cc1	-10	i	0.79	103	.	.	.
Cc1ccc(NC(=O)COC(=O)CSC(=S)N2CCOCC2)cc1C	-2	i	0.96	97	.	.	.

Structures listed so far with a cyano group (3):
SMILES	PKD1 inh	HSV augment	HSV augment primary fold	RGS16-Gao HTS	Insulin prom inh	Insulin prom inh cell count	GALR2 agonist
N#Cc1nc(-c2ccco2)oc1N1CCCC1	6	i	0.94	104	21	111	-1.3
N#CC(=C1CCCC1)c1nc(-c2ccccc2)cs1	-3	i	0.97	117	-3	138	-2.0
N#CCCN(Cc1cccnc1)C(=O)c1ccc(S(=O)(=O)N2CCOCC2)cc1	4	i	1	94	.	.	-2.9
